# Assay outcomes (PubChem)
# Ran importin: RanGTP/importin-beta interaction disruptors – biochemical, CFP-Ran/YFP-importin-beta FRET, RCC1, cell-free, primary screen (AID 434961) | CFP-Ran/YFP-importin-beta FRET, cell-free; hits give high values | inhibition, % | 7,700 tested, 0.2% active;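 active means more than half of the replicate wells above 15% inhibition; inconclusive means exactly half above it; inactive means fewer than half above it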;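 further: 0% = DMSO wells and 100% inhibition = RanGDP control wells on each plate; stock of unstated strength diluted about 400-fold; mean of two wells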
# * hit, by the source's call; ? = inconclusive. A portion of the library, so the mix of outcomes need not match the whole.
SMILES,Ran importin
C[C@@H]1CCCCO[C@@H](CN(C)S(=O)(=O)c2cn(C)cn2)[C@@H](C)CN([C@H](C)CO)C(=O)c2cc(NS(=O)(=O)c3cn(C)cn3)ccc2O1,1.5
C[C@H](CO)N1C[C@H](C)[C@H](CN(C)C(=O)Nc2ccccc2)Oc2ncc(-c3ccccc3)cc2C1=O,-0.4
C[C@H](CO)N1C[C@H](C)[C@H](CN(C)C(=O)Nc2ccc3c(c2)OCO3)Oc2ncc(-c3ccccc3)cc2C1=O,-3.4
C[C@@H]1CN([C@H](C)CO)C(=O)c2cccc(NS(C)(=O)=O)c2O[C@@H]1CN(C)Cc1ccc2c(c1)OCO2,?
C[C@H]1CN([C@@H](C)CO)C(=O)Cc2cc(NC(=O)Nc3ccc(F)cc3)ccc2O[C@@H]1CN(C)C(=O)NC1CCCCC1,-2.5
C[C@H]1CN([C@@H](C)CO)C(=O)Cc2cc(NC(=O)c3ccncc3)ccc2O[C@@H]1CN(C)S(=O)(=O)c1ccccc1,3.4
COc1ccccc1CN(C)C[C@@H]1OCc2cnnn2CCCC(=O)N([C@H](C)CO)C[C@H]1C,?
C[C@@H]1CN([C@@H](C)CO)C(=O)c2cccc(NS(=O)(=O)c3cccs3)c2O[C@@H]1CN(C)Cc1ccc(C(F)(F)F)cc1,-4.4
C[C@H]1CN([C@@H](C)CO)C(=O)Cc2cc(N(C)C)ccc2O[C@@H]1CN(C)S(=O)(=O)c1ccccc1,-1.1
Cc1noc(C)c1NC(=O)N(C)C[C@@H]1OCCCC[C@H](C)Oc2ccc(NC(=O)Cc3ccccc3)cc2C(=O)N([C@@H](C)CO)C[C@@H]1C,3.5
C[C@@H]1CCCCO[C@@H](CN(C)Cc2ccncc2)[C@H](C)CN([C@H](C)CO)C(=O)c2cc(NC(=O)Nc3ccccc3)ccc2O1,2.3
C[C@@H]1CN([C@@H](C)CO)C(=O)CCCn2nncc2CO[C@@H]1CN(C)Cc1ccc(Oc2ccccc2)cc1,4.0
COc1ccc(NC(=O)Nc2cccc3c2O[C@H](CN(C)C)[C@H](C)CN([C@H](C)CO)C3=O)cc1,-0.9
C[C@@H]1CN([C@H](C)CO)C(=O)c2cc(NC(=O)Nc3ccc(F)cc3)ccc2O[C@@H](C)CCCCO[C@@H]1CN(C)C(=O)Cc1ccccc1,?
C[C@H]1CN([C@@H](C)CO)C(=O)Cc2cc(NC(=O)Nc3ccccc3)ccc2O[C@@H]1CN(C)Cc1ccncc1,-0.6
Cc1noc(C)c1NC(=O)N(C)C[C@@H]1Oc2c(NC(=O)Nc3ccc(C(F)(F)F)cc3)cccc2C(=O)N([C@@H](C)CO)C[C@@H]1C,-5.8
C[C@H](CO)N1C[C@H](C)[C@H](CN(C)S(=O)(=O)c2cccs2)Oc2c(NC(=O)Nc3ccc(C(F)(F)F)cc3)cccc2C1=O,3.8
Cc1noc(C)c1S(=O)(=O)Nc1cccc2c1O[C@@H](CN(C)Cc1ccc(Oc3ccccc3)cc1)[C@@H](C)CN([C@H](C)CO)C2=O,-1.3
CC(C)NC(=O)Nc1ccc2c(c1)C(=O)N([C@H](C)CO)C[C@H](C)[C@H](CN(C)C(=O)Nc1ccccc1)OCCCC[C@H](C)O2,0.6
COc1ccc(CN(C)C[C@H]2Oc3ccc(NC(=O)C4CC4)cc3C(=O)N([C@@H](C)CO)C[C@@H]2C)cc1,-0.5
C[C@@H]1CN([C@H](C)CO)C(=O)c2cccc(NC(=O)Nc3cccc4ccccc34)c2O[C@@H]1CN(C)S(=O)(=O)c1ccc(Cl)cc1,?
C[C@@H]1CN([C@H](C)CO)C(=O)c2cc(NC(=O)C3CC3)ccc2O[C@@H]1CN(C)C(=O)Nc1cccc2ccccc12,4.1
C[C@H]1CN([C@@H](C)CO)C(=O)c2cc(NC(=O)Nc3ccc4c(c3)OCO4)ccc2O[C@H]1CN(C)C(=O)Nc1ccc(C(F)(F)F)cc1,-0.7
C[C@H](CO)N1C[C@H](C)[C@@H](CN(C)C(=O)Nc2ccc3c(c2)OCO3)Oc2ccc(NC(=O)Nc3cccc4ccccc34)cc2C1=O,-3.2
CC(C)NC(=O)N(C)C[C@H]1Oc2ccc(NS(=O)(=O)c3cccs3)cc2CC(=O)N([C@@H](C)CO)C[C@@H]1C,-6.5
C[C@H](CO)N1C[C@H](C)[C@H](CN(C)C(=O)Nc2cccc3ccccc23)Oc2ccc(NC(=O)NC3CCCCC3)cc2C1=O,-0.9
C[C@@H]1CN([C@@H](C)CO)C(=O)c2cccc(NC(=O)c3nc4ccccc4s3)c2O[C@H]1CN(C)S(=O)(=O)c1cn(C)cn1,-4.1
C[C@H](CO)N1C[C@H](C)[C@@H](CN(C)C(=O)Nc2ccccc2)Oc2ccc(NC(=O)Cn3cnnn3)cc2C1=O,-3.5
C[C@@H]1CN([C@@H](C)CO)C(=O)c2cc(NS(=O)(=O)c3cccs3)ccc2O[C@@H]1CN(C)CC1CC1,5.3
C[C@@H]1CCCCO[C@@H](CN(C)C(=O)c2ccccc2)[C@@H](C)CN([C@@H](C)CO)C(=O)c2cc(NS(=O)(=O)c3ccccc3)ccc2O1,1.3
COc1ccc(S(=O)(=O)N(C)C[C@H]2Oc3ccc(NS(=O)(=O)c4cn(C)cn4)cc3CC(=O)N([C@@H](C)CO)C[C@@H]2C)cc1,-7.0
COc1ccc(S(=O)(=O)N(C)C[C@@H]2Oc3ccc(NC(=O)Cc4cn(C)c5ccccc45)cc3C(=O)N([C@H](C)CO)C[C@H]2C)cc1,?
Cc1noc(C)c1NC(=O)N(C)C[C@H]1Oc2c(cccc2N(C)C)C(=O)N([C@H](C)CO)C[C@H]1C,?
C[C@@H]1CN([C@H](C)CO)C(=O)Cc2cc(NC(=O)Cc3cn(C)c4ccccc34)ccc2O[C@@H]1CN(C)C(=O)NC1CCCCC1,-0.8
C[C@@H]1CCCCO[C@H](CN(C)C)[C@@H](C)CN([C@H](C)CO)C(=O)c2cc(NS(C)(=O)=O)ccc2O1,3.9
Cc1noc(C)c1NC(=O)N(C)C[C@H]1OCCCC[C@H](C)Oc2ccc(NS(C)(=O)=O)cc2C(=O)N([C@@H](C)CO)C[C@@H]1C,-0.6
C[C@H](CO)N1C[C@H](C)[C@H](CN(C)CC2CC2)OCCCC[C@H](C)Oc2ccc(NS(=O)(=O)c3ccccc3)cc2C1=O,-0.1
Cc1noc(C)c1NC(=O)Nc1cccc2c1O[C@@H](CN(C)Cc1ccncc1)[C@@H](C)CN([C@@H](C)CO)C2=O,-0.2
COc1ccc(CN(C)C[C@H]2Oc3ccc(NC(=O)Cn4cnnn4)cc3CC(=O)N([C@H](C)CO)C[C@H]2C)cc1,0.7
Cc1noc(C)c1NC(=O)N(C)C[C@H]1Oc2c(NC(=O)C3CCOCC3)cccc2C(=O)N([C@@H](C)CO)C[C@@H]1C,2.7
CC(C)NC(=O)Nc1ccc2c(c1)C(=O)N([C@@H](C)CO)C[C@H](C)[C@H](CN(C)C)OCCCC[C@H](C)O2,-5.2
C[C@@H]1CCCCO[C@H](CN(C)C)[C@@H](C)CN([C@H](C)CO)C(=O)c2cc(NC(=O)C3CCCCC3)ccc2O1,-4.0
CNC[C@@H]1Oc2c(NS(=O)(=O)c3ccc(OC)cc3)cccc2C(=O)N([C@@H](C)CO)C[C@@H]1C,0.5
C[C@@H]1CN([C@@H](C)CO)C(=O)c2cccc(NS(=O)(=O)c3cccs3)c2O[C@@H]1CN(C)C(=O)Nc1cccc2ccccc12,-4.5
Cc1noc(C)c1NC(=O)Nc1ccc2c(c1)CC(=O)N([C@@H](C)CO)C[C@@H](C)[C@@H](CN(C)C(=O)NC(C)C)O2,2.2
C[C@H](CO)N1C[C@H](C)[C@@H](CN(C)C(=O)Nc2ccc(F)cc2)Oc2ccc(NC(=O)c3ccncc3)cc2CC1=O,?
C[C@@H]1CN([C@H](C)CO)C(=O)c2cc(NC(=O)CCC(F)(F)F)ccc2O[C@@H](C)CCCCO[C@H]1CN(C)C(=O)CCC(F)(F)F,-4.6
Cc1noc(C)c1S(=O)(=O)N(C)C[C@H]1Oc2c(cccc2N(C)C)C(=O)N([C@@H](C)CO)C[C@@H]1C,1.9
C[C@H](CO)N1C[C@H](C)[C@H](CN(C)C(=O)NC2CCCCC2)Oc2ccc(NC(=O)Nc3cccc4ccccc34)cc2CC1=O,-5.8
CC(C)NC(=O)Nc1cccc2c1O[C@H](CN(C)Cc1ccc(Oc3ccccc3)cc1)[C@@H](C)CN([C@@H](C)CO)C2=O,5.0
C[C@@H]1CN([C@H](C)CO)C(=O)c2cccc(NS(=O)(=O)c3ccc(Cl)cc3)c2O[C@H]1CN(C)C(=O)Nc1ccc(F)cc1,4.8
C[C@@H]1CN([C@@H](C)CO)C(=O)c2cc(NS(=O)(=O)c3cccs3)ccc2O[C@H]1CN(C)C,1.0
C[C@@H]1CCCCO[C@@H](CN(C)S(C)(=O)=O)[C@H](C)CN([C@@H](C)CO)C(=O)c2cc(NS(=O)(=O)c3ccccc3)ccc2O1,2.3
C[C@H]1CN([C@@H](C)CO)C(=O)Cc2cc(NC(=O)CCN3CCOCC3)ccc2O[C@@H]1CN(C)C(=O)Nc1cccc2ccccc12,4.1
C[C@H](CO)N1C[C@H](C)[C@@H](CN(C)C(=O)Nc2ccccc2)Oc2ccc(NC(=O)CCC(F)(F)F)cc2C1=O,-3.9
CNC[C@H]1Oc2ccc(NC(=O)NC(C)C)cc2CC(=O)N([C@H](C)CO)C[C@@H]1C,-1.6
CC(C)NC(=O)Nc1cccc2c1O[C@H](CN(C)Cc1ccc(Oc3ccccc3)cc1)[C@@H](C)CN([C@H](C)CO)C2=O,6.4
C[C@H]1CN([C@@H](C)CO)C(=O)c2cc(NC(=O)Nc3ccc4c(c3)OCO4)ccc2O[C@@H]1CN(C)C(=O)Nc1ccc(F)cc1,-1.6
C[C@H](CO)N1C[C@H](C)[C@@H](CN(C)C(=O)Nc2ccccc2)Oc2ccc(NC(=O)Cn3cnnn3)cc2CC1=O,2.2
C[C@@H]1CN([C@H](C)CO)C(=O)c2cccc(NC(=O)NC3CCCCC3)c2O[C@H]1CN(C)S(=O)(=O)c1ccccc1,-4.2

# (cont.)
SMILES,Ran importin
C[C@@H]1CN([C@H](C)CO)C(=O)Cc2cc(NC(=O)Cc3cn(C)c4ccccc34)ccc2O[C@@H]1CN(C)Cc1ccc(C(=O)O)cc1,3.0
C[C@@H]1CN([C@@H](C)CO)C(=O)c2cc(NC(=O)CCCN(C)C)ccc2O[C@@H](C)CCCCO[C@H]1CN(C)Cc1ccc2c(c1)OCO2,7.2
CC(C)NC(=O)Nc1ccc2c(c1)C(=O)N([C@H](C)CO)C[C@@H](C)[C@H](CN(C)C(=O)c1ccncc1)OCCCC[C@H](C)O2,-3.0
C[C@H]1CCCCO[C@H](CN(C)C(=O)Nc2ccccc2)[C@@H](C)CN([C@@H](C)CO)C(=O)c2cc(NC(=O)Nc3ccccc3)ccc2O1,-0.6
C[C@H]1CN([C@@H](C)CO)C(=O)c2cccc(NS(=O)(=O)c3cn(C)cn3)c2O[C@H]1CN(C)C(=O)Nc1ccc(C(F)(F)F)cc1,6.5
CC(C)NC(=O)N(C)C[C@H]1Oc2ccc(N(C)C)cc2CC(=O)N([C@@H](C)CO)C[C@H]1C,-0.5
C[C@@H]1CN([C@@H](C)CO)C(=O)c2cc(NC(=O)Nc3ccccc3)ccc2O[C@H]1CN(C)C(=O)NC1CCCCC1,2.6
COC(=O)N(C)C[C@@H]1OCc2cn(nn2)CCCC(=O)N([C@H](C)CO)C[C@H]1C,?
C[C@H]1CCCCO[C@@H](CN(C)C(=O)c2ccncc2)[C@@H](C)CN([C@@H](C)CO)C(=O)c2cc(N(C)C)ccc2O1,-4.3
C[C@@H]1CN([C@H](C)CO)C(=O)c2cccc(NC(=O)c3ccncc3)c2O[C@@H]1CN(C)C(=O)Nc1ccc(C(F)(F)F)cc1,-4.6
C[C@@H]1CCCCO[C@@H](CN(C)C)[C@@H](C)CN([C@@H](C)CO)C(=O)c2cc(NC(=O)Nc3ccc(F)cc3)ccc2O1,-4.5
C[C@@H]1CN([C@@H](C)CO)C(=O)c2cc(NC(=O)CCCN(C)C)ccc2O[C@@H](C)CCCCO[C@@H]1CN(C)C,-1.6
Cc1noc(C)c1S(=O)(=O)Nc1cccc2c1O[C@@H](CN(C)C(=O)Nc1ccc(F)cc1)[C@@H](C)CN([C@@H](C)CO)C2=O,-4.7
C[C@H]1CCCCO[C@H](CN(C)C(=O)CCC(F)(F)F)[C@@H](C)CN([C@@H](C)CO)C(=O)c2cc(N(C)C)ccc2O1,-3.0
